StopGo FLuc: lowers the firefly signal of an FMDV 2A StopGo reporter; 0.23% of 120,000 active; Potency, µM (highest dose often 57.5 µM), for inactives: at the highest dose signal change, negative = less light; HEK cells with a luciferase reporter of 2A StopGo recoding; AID 1745856; active = well fitted falling curve with a large enough effect; inconclusive = small, poorly fitted or top-dose-only effect; inactive = no such curve, though single readings can be large or run the other way; note: nearly all actives have a fitted effect of over 60% in size; overnight with compound
2A Renilla: FMDV 2A StopGo reporter, Renilla signal; HEK cells with a luciferase reporter of 2A StopGo recoding; Potency, µM (highest dose often 57.5 µM), for inactives: at the highest dose signal change, negative = less light; 0.32% of 120,000 active; active means well fitted falling curve with a large enough effect; inconclusive means small, poorly fitted or top-dose-only effect; inactive means no such curve, though single readings can be large or run the other way; note: nearly all actives have a fitted effect of over 55% in size; overnight with compound
Starred values were filed as active, the others as inactive; ? = inconclusive; & = joins results of further samples; [ ] = another dose, or the depositor's remark. % is set by controls: 0 for no effect and ±100 for the full control effect; potency is the fitted concentration of half-maximal effect.

SMILES	StopGo FLuc	2A Renilla
CC(=O)c1c(C)n(-c2ccc(C)cc2C)c2ccc(O)cc12	4%	8%
Cn1c(Oc2cccc(Cl)c2)nc2c1c(=O)n(Cc1ccccc1Cl)c(=O)n2C	-22%	-4%
COCc1c(C(=O)Nc2ccc(S(=O)(=O)C(F)F)cc2)oc2ccccc12	0%	-4%
CCOC(=O)c1cnc2c(Cl)c(Cl)ccc2c1NCCN1CCOCC1	-13%	4%
O=C(Cn1nnc(-c2ccccc2Cl)n1)Nc1ccc(Br)cc1	-3%	-12%
CCCn1nc(C(=O)NCC2CCCN2CC)c2ccccc2c1=O (stereo not given)	-11%	-9%
CCOC(=O)c1c(C)[nH]c(C(=O)OCC(=O)OC)c1C	114%[activator]	10%
COc1ccccc1-n1nc(-c2ccccc2)c2cnc3c(F)cc(F)cc3c21	-14%	-15%
CCCC(=O)Nc1ccc(C(=O)NCCc2ccccc2)cc1	16%	3%
CN(C)C(=O)CNS(=O)(=O)c1cccc(F)c1	0%	22%

Arranged by count of non-hydrogen atoms (largest number first): part of the list above.
SMILES	StopGo FLuc	2A Renilla
COc1ccccc1-n1nc(-c2ccccc2)c2cnc3c(F)cc(F)cc3c21	-14%	-15%
CCOC(=O)c1cnc2c(Cl)c(Cl)ccc2c1NCCN1CCOCC1	-13%	4%
CCCC(=O)Nc1ccc(C(=O)NCCc2ccccc2)cc1	16%	3%
CC(=O)c1c(C)n(-c2ccc(C)cc2C)c2ccc(O)cc12	4%	8%
CCOC(=O)c1c(C)[nH]c(C(=O)OCC(=O)OC)c1C	114%[activator]	10%
CN(C)C(=O)CNS(=O)(=O)c1cccc(F)c1	0%	22%

(further entries)
SMILES	StopGo FLuc	2A Renilla
CC(C)(C)NC(=O)Cn1cc(S(=O)(=O)Cc2ccccc2Cl)c2ccccc21	27%	15%
CCOc1ccc(NC(=O)CC2C(=O)N(c3ccccc3)C(=O)N2Cc2ccc3c(c2)OCO3)cc1 (stereo not given)	-20%	60%[activator]
CCN(CC)CCc1c[nH]c2ccccc12	2%[27 µM]	-4%[129 µM]
O=C1Cc2cc(S(=O)(=O)N3CCCCC3)cc3c2N1CCC3	-21%	-2%
CCc1ccc(NC(=O)CSc2nc3c(oc4ccccc43)c(=O)n2-c2cccc(C)c2)cc1	-23%	6%
O=C(COc1ccc2ccc(=O)oc2c1)Nc1cccc2ccccc12	-9%	-6%
COc1cc2c(cc1OC)CN(C(=O)c1oc3ccc(F)cc3c1C)CC2	13%	1%
CCCCn1c(=O)[nH]c(=O)c2c1nc(CSc1nccn1-c1cc(C)cc(C)c1)n2C	-2%	-3%
Cc1ccc(Nc2nnc(Cc3ccc(Cl)cc3)c(=O)[nH]2)cc1	-9%	-7%
COc1cc(OC)c(-c2cc(C(=O)NCc3ccc(F)cc3)c3c(-c4ccccc4)[nH]nc3n2)cc1OC	-27%	0%
Cc1ccc2nc(N3CCN(C4CCCCC4)CC3)c(-n3nc(C)cc3C)nc2c1	12%	38%[activator]
c1ccc(-c2nc(CSc3nnnn3C3CCCCC3)co2)cc1	13%	37%[activator]
COc1ccc(C(=O)Nc2ccc(-n3nncc3-c3ccccc3)cc2)cc1OC	-20%	-23%
CC(OC(=O)/C=C/c1ccccc1)C(N)=O (stereo not given)	13%	5%[1.06 µM]
CCn1nc(C(=O)Nc2nc(-c3ccccc3)cs2)c2ccccc2c1=O	77%[activator]	10%
COc1ccc2[nH]c(=O)c(CN(C(=O)c3cccc(Cl)c3)c3ccccc3C)cc2c1	14%	-13%
O=C(Nc1ccccc1F)c1cnn2c(C(F)F)cc(C3CC3)nc12	0%	-16%
O=C(CSc1nccn2nc(-c3cccc4ccccc34)cc12)N1CCN(c2ccc(F)cc2)CC1	12%	-5%
CCCCNc1nc2c(c(=O)n(C)c(=O)n2C)n1Cc1ccc(F)cc1	?	?
COc1cc(CC(=O)OCC(=O)c2ccc(Cl)cc2)cc(OC)c1OC	0%	29%
Fc1ccc(Nc2ncnc3onc(-c4ccc(Cl)cc4)c23)cc1	-10%	0%
COc1ccc2c(CCNC(=O)CCNc3nc(Cl)nc4nc[nH]c34)c[nH]c2c1	0%	-5%
CCCc1cc(=O)n2nc(N3CCC(C(=O)NCc4cccc(Br)c4)CC3)sc2n1	7%	-6%
CCc1ccc(NC(=O)Cn2nc(C(F)(F)F)c3c2CCCC3)cc1	8%	4%
Cc1ccc(C(=O)CCC(=O)NC(C)C2CC3CCC2C3)cc1C (stereo not given)	27%	15%
O=C(NCCc1csc(-c2ccc(C(F)(F)F)cc2)n1)C(=O)Nc1ccc(F)c(Cl)c1	-12%	-2%
Cc1ccc(-c2nnc(Nc3ccc(S(N)(=O)=O)cc3)c3ccccc23)cc1S(=O)(=O)N1CCOCC1	-16%	-15%
COc1ccccc1NC(=O)c1cc(=O)c2cc(C)ccc2o1	46%[activator]	6%
CCN(C)Cc1cccc(CNC(=O)CCc2ncc(-c3ccccc3)o2)c1	-3%	-5%
CC(C)(C)NC(=O)CSc1nnc(-c2cccnc2)o1	13%	-3%

Individual results from the results shown:
Value of `CCc1ccc(NC(=O)Cn2nc(C(F)(F)F)c3c2CCCC3)cc1` in 2A Renilla: 4%
Value of `O=C(NCCc1csc(-c2ccc(C(F)(F)F)cc2)n1)C(=O)Nc1ccc(F)c(Cl)c1` in StopGo FLuc: -12%
Value of `CCCc1cc(=O)n2nc(N3CCC(C(=O)NCc4cccc(Br)c4)CC3)sc2n1` in StopGo FLuc: 7%
Value of `CCN(C)Cc1cccc(CNC(=O)CCc2ncc(-c3ccccc3)o2)c1` in 2A Renilla: -5%

New compounds follow:
SMILES	StopGo FLuc	2A Renilla
Cc1ccccc1-n1c(SCC(=O)c2ccccc2)nnc1-c1ccc(F)cc1	2%	98%[activator]
CCc1ccc(NC(=O)Cn2c(=O)n(CCC(=O)NCc3ccc4c(c3)OCO4)c(=O)c3ccccc32)cc1	-9%	-11%
Fc1ccc(Nc2ncnc3c2nc2n3CCCCC2)c(F)c1	203%[activator]	-3%
CCn1cc(/C=C(\NC(=O)c2ccco2)C(=O)N2CCOCC2)c2ccccc21	-11%	-18%
COc1ccc(-n2ncc3c(NCCC4=CCCCC4)ncnc32)cc1	120%[activator]	8%
COc1ccc(C(=O)N2c3ccccc3NC3=C(C(=O)CCC3)C2c2ccccc2OC)cc1 (stereo not given)	8%	12%
CNC(=O)CN(C)S(=O)(=O)c1ccc(C)c2ncccc12	3%	3%
N#CCOc1ccccc1/C=C/C(=O)c1ccc(F)c(Cl)c1	0%	0%
COc1cccc(N2CCN(C(=O)Cn3c(-c4cccs4)cc4ccccc43)CC2)c1	4%	3%
Cc1ccccc1C(=O)Nc1ccc2nc(SCC(=O)N3CCc4ccccc43)sc2c1	19%	22%
O=C(c1cccc(Cl)c1)N1CCN(c2cn[nH]c(=O)c2Cl)CC1	-13%	-4%
C=CCNc1nc2c(c(=O)n(C)c(=O)n2C)n1CCCCCC	?	?
CC(C)CNc1nc(C(=O)Nc2nnc(C3CC3)s2)cs1	88%[activator]	11%
CC(C)NC(=O)CC(c1ccc(F)cc1)N1Cc2ccccc2C1=O (stereo not given)	11%	55%[activator]
Cc1noc(C)c1COc1ccc(CC(=O)N2CCN(CC(=O)N3CCOCC3)CC2)cc1	4%	-5%
Fc1ccc(-c2noc(-c3ccc[nH]3)n2)cc1	150%[activator]	-3%
CCC1CCc2sc(C(=O)NCc3cccs3)cc2C1 (stereo not given)	89%[activator]	108%[activator]
Cc1cccc(C)c1NC(=O)c1ccccc1C(=O)O	-15%	-8%
Cc1ccc(C(CNC(=O)c2cc(=O)c3cc(Br)ccc3o2)N2CCC(C)CC2)o1 (stereo not given)	-2%	-8%
O=C(O)c1ccccc1CSc1ccc(Cl)cc1	0%	10%

Grouped by structure: those above containing a tert-butyl group
SMILES	StopGo FLuc	2A Renilla
CC(C)(C)NC(=O)Cn1cc(S(=O)(=O)Cc2ccccc2Cl)c2ccccc21	27%	15%
CC(C)(C)NC(=O)CSc1nnc(-c2cccnc2)o1	13%	-3%

(further entries)
SMILES	StopGo FLuc	2A Renilla
COc1cc(-c2ccno2)ccc1S(=O)(=O)N1CCN(c2ccccc2F)CC1	4%&-20%	87%&52%[activator]
COc1ccc(-n2c(-c3ccco3)nc3c(cnn3-c3ccc(C)cc3)c2=O)cc1	-10%&-5%	-2%&0%
O=C(CCc1ncc(-c2ccccc2Cl)o1)NCc1ccncc1	31%[activator]	-3%
O=C(c1cccn1-c1nnc(N2CCCCC2)s1)N1CCN(c2ccccc2)CC1	-4%	-3%
Cc1[nH]nc2c1C(c1ccc(-c3ccccc3F)o1)SCC(=O)N2 (stereo not given)	22%	-12%
Cc1ccc(NC(=O)Cn2cnc3nc4c(cc3c2=O)CCCC4)cc1Cl	-5%	9%
Cn1c(=O)c2c(nc(N3CCOCC3)n2Cc2cccc(Br)c2)n(C)c1=O	-5%&-6%	10%&-6%
C=CCC(C)(NCc1ccccc1)c1ccccc1 (stereo not given)	-1%	2%
Cc1cccc(C(=O)NNC(=S)NC(=O)c2ccc(C(C)(C)C)cc2)c1	51%[activator]	-1%
Cc1ccccc1NC(=O)c1ccc2c(c1)CCC2	224%[activator]	0%
CC(C)OC(=O)c1c(-c2ccc(Cl)c(Cl)c2)csc1NC(=O)CCC(=O)O	-10%	-6%
CCOc1ccccc1CNC(=O)CN1C(=O)CCCc2ccccc21	-6%	19%
COc1cccc(C(=O)Oc2ccc3c(=O)c(-c4ccccc4OC)c(C)oc3c2)c1	18%	-7%
CCC(C)n1c(=N)c(C(=O)NCc2ccco2)cc2c(=O)n3cc(C)ccc3nc21 (stereo not given)	-6%	-6%
CC1=C(C)CC(C(=O)N2CCCc3cc(C)ccc32)C(C(=O)O)C1 (stereo not given)	1%	0%
CCc1cc(=O)oc2cc(C)cc(OCC(=O)NCCCn3ccnc3)c12	-4%	-2%
OC(CC#CCN1CCOCC1)(c1ccccc1)C1CCCC1 (stereo not given)	-4%	-6%
CCCCN(CC)c1ncnc2c1sc1nc(N3CCOCC3)c3c(c12)CCCC3	-9%	-10%
COc1cc2c(=O)c(C(=O)c3ccc(C)c(C)c3)cn(Cc3ccccc3F)c2cc1OC	11%	5%
Nc1nc(NCc2cccc(Cl)c2)c2[nH]cnc2n1	23%	-8%
CN(C)N1C(N)=C(C#N)C(c2ccc(F)cc2)C2=C1CC(C)(C)CC2=O (stereo not given)	1%	3%
Cc1nc(-c2cccs2)c(CC(=O)NCCc2ccccc2F)s1	23%	20%
Cc1nc2ccccc2n1CCc1nc2c3ccccc3nc(SCc3ccccc3F)n2n1	-15%	18%
CC(C)c1ccccc1NC(=O)c1cccs1	22%	0%
COc1ccc(-c2cc3ccc(O)c(CN4CCCCC4C)c3oc2=O)cc1OC (stereo not given)	1%	1%
O=C(NCc1ccc(N2CCCC2)nc1)c1ccc(F)cc1	32%[activator]	0%
COC(=O)Cc1c(C)c2ccc(O)c(C)c2oc1=O	0%	7%
Cc1nc2ccccc2nc1SC(C)C(=O)NCC(C)C (stereo not given)	7%	-1%
Cc1cccc(-c2nc(SCC(=O)Nc3ccc4c(c3)OCO4)c(-c3ccccc3)[nH]2)c1	-25%	11%
CC(NC(=O)C1CCN(C(=O)c2cccc3ccccc23)CC1)c1ccc(F)cc1 (stereo not given)	-10%	66%[activator]
COc1ccc(S(=O)(=O)NCCO)cc1C	-1%	18%
O=C(Nc1cccc(Cl)c1)N(Cc1cccs1)c1ccccn1	0%	8%
CCCCc1c(C)nc2ccccc2c1SCCC(=O)O	8%	-5%
c1csc(-c2nc(-c3ccc4c(c3)OCCCO4)cs2)c1	0%	37%
CCOc1ccc(C2C(C(=O)Nc3ccc(Cl)cc3)=C(C)Nc3nc(C(F)(F)F)nn32)cc1 (stereo not given)	-22%	-2%
O=C(COc1ccc2ccccc2c1)NC1CC(=O)N(c2cccc(F)c2)C1 (stereo not given)	-2%	-10%
O=S(=O)(Nc1ccc(Cl)cc1)c1ccc(NS(=O)(=O)c2ccc3c(c2)OCCO3)cc1	-10%	232%[activator]
Cc1ccc(N=C/C(=C/Nc2ccc(C)cc2)[N+](=O)[O-])cc1	19%	-3%
CCONC(=O)NCc1ccc2cc(OC)ccc2c1	31%[activator]	9%
COc1ccc(N2CC(NC(=O)c3ccco3)CC2=O)cc1OC (stereo not given)	-2%	-9%
CCn1nc(C(=O)OCc2ccc(C(C)(C)C)cc2)c2ccccc2c1=O	-10%	-19%
CCN1C(=O)c2ccccc2Sc2ccc(NC(=O)c3ccc(C)c(F)c3)cc21	12%	2%
CCn1cc(S(=O)(=O)N2CCCC2C(=O)O)c(C)n1 (stereo not given)	-3%	14%
CCCn1c(=O)[nH]c(=O)c2c(C(=O)O)cc(C(C)C)nc21	5%	-5%
CCN1C(=O)c2ccccc2Sc2ccc(NC(=O)Nc3ccc(C(C)=O)cc3)cc21	-17%	-4%
CCn1c(SCC(=O)Nc2cc(OC)cc(OC)c2)nc2c(-c3ccccc3)csc2c1=O	17%	0%
O=S(=O)(NC1CCSc2c(F)cccc21)c1ccc(Br)cc1 (stereo not given)	-4%	85%[activator]
CCOc1ccc(CNC(=O)CSc2c3c(nc4ccc(Cl)cc24)CCCC3)cc1	-3%	-7%
O=c1cc(Cn2nnc(-c3ccccc3)n2)nc2sccn12	4%	-4%
Cc1cccc(N2CCN(C(=O)c3oc(=O)c4ccccc4c3-c3ccccc3)CC2)c1C	-13%	-3%
(cont.)
SMILES	StopGo FLuc	2A Renilla
COCCN(Cc1cccs1)S(=O)(=O)c1ccc(Br)cc1	-1%	46%[activator]
O=C(Nc1ccc(Cl)c2ncsc12)c1ccc(S(=O)(=O)N2CCCCC2)cc1	5%	14%
CC(OC(=O)c1ccc(-n2cnnn2)cc1)C(=O)Nc1ccc(N2CCOCC2)cc1 (stereo not given)	40%[activator]	-2%
O=C(NC1CCN(Cc2ccccc2)C1)c1c[nH]c2ccccc12 (stereo not given)	-5%	-17%
Cc1ccccc1NC(=O)C(C#N)C(=O)/C=C/c1ccccc1 (stereo not given)	0%	8%

A portion of the library. The share of hits here may be higher or lower than overall.
